HCMV NEC inh – inhibitors of HCMV UL50-UL53 nuclear egress complex interaction; actives 0.15% (n = 190,000); inhibition, % (test concentration not listed); HTRF UL50-UL53 interaction, normalized percent inhibition;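 active means both replicates at 50% or more, plus weaker picks with an unusually low signal ratio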;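 further: stock transfer was 100 nL into about 20 µL; 0% = negative control wells and 100% = wells with untagged competitor protein; inactives centre near -12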
Sa growth 42C – inhibitors of Staphylococcus aureus growth at 42 °C | S. aureus RN4220 growth, OD600, 20 h; stronger effect = lower value | relative growth, % (test concentration not listed) | actives 0.53% (n = 170,000) | AID 720641;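 active means growth at 42 °C up to 50% and 20 or more points under that at 30 °C, or under 10% at both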;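 further: 300 nL library stock went into each well; scaled to the means of positive and negative controls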
GIV-Gai inh – GIV-Galpha-i interaction inhibition; AID 1224905; percent of control (FP), % (no concentration beside the values); P08753; Galpha-i3/FITC-GIV peptide fluorescence polarization, 90 min; stronger effect = lower value; scaled: aluminum fluoride 0%, vehicle 100%; actives 0.42% (n = 210,000);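 active means replicate mean at 85% of control or lower, very high polarization wells dropped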;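 further: wells of about 15 µL received 100 nL stock; the first replicate is given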
Target sequence (P08753 whole entry, looked up): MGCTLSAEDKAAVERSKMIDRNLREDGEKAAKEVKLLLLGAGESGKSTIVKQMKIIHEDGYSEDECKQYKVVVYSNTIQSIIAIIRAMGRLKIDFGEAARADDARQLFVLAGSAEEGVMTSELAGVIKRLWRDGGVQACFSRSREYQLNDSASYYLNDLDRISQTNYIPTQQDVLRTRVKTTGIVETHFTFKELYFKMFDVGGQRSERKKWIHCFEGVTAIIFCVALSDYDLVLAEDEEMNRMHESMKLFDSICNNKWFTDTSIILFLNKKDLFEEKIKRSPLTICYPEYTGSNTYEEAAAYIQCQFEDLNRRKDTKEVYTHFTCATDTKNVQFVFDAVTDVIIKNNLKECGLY
Sa growth 42C second temp – also measured in Sa growth 42C; calls as there; relative growth, %; measured here: growth at 30 °C;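 optical density after 20 h as mean of two plates; 100% = untreated growth and lower means inhibition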
Starred values were filed as active, the others as inactive; & = joins results of further samples. The order is random; 0.83% or so of the library scored in one or more.

`COc1ccc(OC)c(NC(=O)c2c(NCc3ccc(OC)c(OC)c3)sc3c2CCC(C)C3)c1` (stereo unspecified) gave Sa growth 42C 88, GIV-Gai inh 104 and Sa growth 42C second temp 90.
`O=c1[nH]c2sc3c(c2c2nc(-c4cc(-c5ccccc5)nn4-c4ccccc4)nn12)CCC3` gave HCMV NEC inh -27, Sa growth 42C 50 and Sa growth 42C second temp 85.
For N#CC(C(N)=O)=C1CCCCCC1 the results were HCMV NEC inh -10, Sa growth 42C 109 and Sa growth 42C second temp 87.
Screening Cc1cc(C)cc(NC(=O)c2cc(S(=O)(=O)N3CCCCCC3)cn2C)c1 returned Sa growth 42C 95, GIV-Gai inh 97 and Sa growth 42C second temp 90.
For CN(Cc1ccc(Br)s1)Cn1nnc(-c2ccccc2)n1 the results were HCMV NEC inh -57, Sa growth 42C 90 and Sa growth 42C second temp 77.
Screening CC1CN(/C(N)=N/S(=O)(=O)c2ccc(Cl)c(Cl)c2)CC(C)O1 (stereo unspecified) returned HCMV NEC inh -9, Sa growth 42C 86, GIV-Gai inh 104 and Sa growth 42C second temp 91.
For CCc1nonc1NC(=O)c1oc2ccc(Cl)cc2c1C the results were HCMV NEC inh -10, Sa growth 42C 78, GIV-Gai inh 97 and Sa growth 42C second temp 89.
For O=C(Nc1ccc(S(=O)(=O)N2CCCCC2)cc1)c1ccc(F)cc1 the results were HCMV NEC inh -27, Sa growth 42C 85, GIV-Gai inh 101 and Sa growth 42C second temp 85.
COc1ccc(OCC(=O)NCCS(=O)(=O)N2CCN(c3cccc(Cl)c3)CC2)cc1 was read as Sa growth 42C 79, GIV-Gai inh 104 and Sa growth 42C second temp 78.
For O=C(O)C1CSC(c2c(Cl)cccc2Cl)N1 (stereo unspecified) the results were HCMV NEC inh -15, Sa growth 42C 93, GIV-Gai inh 101 and Sa growth 42C second temp 58.
O=C(c1ccc(S(=O)(=O)c2ccc(Cl)cc2)nc1)N1CCN(c2ncccn2)CC1 was read as HCMV NEC inh -8 and GIV-Gai inh 99.
For COc1ccccc1-c1noc(-c2ccc(NC(C)C)c([N+](=O)[O-])c2)n1 the results were HCMV NEC inh 7, Sa growth 42C 118, GIV-Gai inh 109 and Sa growth 42C second temp 89.
For Fc1ccc(C(OCCCc2cnc[nH]2)c2ccc(F)cc2)cc1 the results were HCMV NEC inh -25 and GIV-Gai inh 102.
For Cc1ccc(-n2cc[nH]c(=O)c2=O)cc1 the results were HCMV NEC inh -48&-75, Sa growth 42C 82, GIV-Gai inh 102&99 and Sa growth 42C second temp 86.
N#Cc1ccc(C(=O)NCCc2ccccn2)cc1 was read as HCMV NEC inh -41, Sa growth 42C 104 and Sa growth 42C second temp 94.
For COC(=O)c1ccc2c(c1)N(Cc1ccc(C)cc1)C(=O)C(OC(C)=O)S2=O (stereo unspecified) the results were HCMV NEC inh -14, Sa growth 42C 51, GIV-Gai inh 99 and Sa growth 42C second temp 38.
For COc1ccc(S(=O)(=O)NCCc2cc3ccc(C)c(C)c3[nH]c2=O)cc1 the results were HCMV NEC inh -1, Sa growth 42C 94, GIV-Gai inh 108 and Sa growth 42C second temp 97.
COc1ccc(CCn2c(SCC#N)nc3ccccc3c2=O)cc1OC was read as HCMV NEC inh -24, Sa growth 42C 108, GIV-Gai inh 101 and Sa growth 42C second temp 81.
Screening O=C1N/C(=N/c2ccccn2)SC1Cc1ccc(Cl)cc1 (stereo unspecified) returned HCMV NEC inh -7 and GIV-Gai inh 103.
Screening CCc1cc(C(=O)Nc2c(C)nn(Cc3ccc(C)cc3)c2C)no1 returned HCMV NEC inh -23, Sa growth 42C 95, GIV-Gai inh 105 and Sa growth 42C second temp 90.
Screening c1ccc(OCCn2c(COc3ccccc3)nc3ccccc32)cc1 returned HCMV NEC inh -22, Sa growth 42C 90, GIV-Gai inh 101 and Sa growth 42C second temp 105.
For COc1cccc(N2CCN(S(=O)(=O)c3cc(Br)cc4c3N(C(=O)C3CC3)CC4)CC2)c1 the results were HCMV NEC inh -5, Sa growth 42C 85, GIV-Gai inh 102 and Sa growth 42C second temp 85.
COC(=O)C1=C(c2ccccc2)c2ccccc2S(=O)(=O)N1CC(=O)Nc1cccc(C(C)=O)c1 was read as HCMV NEC inh 13, Sa growth 42C 101, GIV-Gai inh 101 and Sa growth 42C second temp 86.
Screening CSc1cccc(NC(=O)Nc2ccccc2OCc2cc(=O)n3cc(C)ccc3n2)c1 returned Sa growth 42C 91, GIV-Gai inh 99 and Sa growth 42C second temp 89.

8 neighbouring records already listed, quoted:
N#Cc1ccc(C(=O)NCCc2ccccn2)cc1 was read as HCMV NEC inh -41, Sa growth 42C 104 and Sa growth 42C second temp 94.
For COC(=O)c1ccc2c(c1)N(Cc1ccc(C)cc1)C(=O)C(OC(C)=O)S2=O (stereo unspecified) the results were HCMV NEC inh -14, Sa growth 42C 51, GIV-Gai inh 99 and Sa growth 42C second temp 38.
For COc1ccc(S(=O)(=O)NCCc2cc3ccc(C)c(C)c3[nH]c2=O)cc1 the results were HCMV NEC inh -1, Sa growth 42C 94, GIV-Gai inh 108 and Sa growth 42C second temp 97.
COc1ccc(CCn2c(SCC#N)nc3ccccc3c2=O)cc1OC was read as HCMV NEC inh -24, Sa growth 42C 108, GIV-Gai inh 101 and Sa growth 42C second temp 81.
Screening O=C1N/C(=N/c2ccccn2)SC1Cc1ccc(Cl)cc1 (stereo unspecified) returned HCMV NEC inh -7 and GIV-Gai inh 103.
Screening CCc1cc(C(=O)Nc2c(C)nn(Cc3ccc(C)cc3)c2C)no1 returned HCMV NEC inh -23, Sa growth 42C 95, GIV-Gai inh 105 and Sa growth 42C second temp 90.
Screening c1ccc(OCCn2c(COc3ccccc3)nc3ccccc32)cc1 returned HCMV NEC inh -22, Sa growth 42C 90, GIV-Gai inh 101 and Sa growth 42C second temp 105.
For COc1cccc(N2CCN(S(=O)(=O)c3cc(Br)cc4c3N(C(=O)C3CC3)CC4)CC2)c1 the results were HCMV NEC inh -5, Sa growth 42C 85, GIV-Gai inh 102 and Sa growth 42C second temp 85.

Following part.
`Cn1cnnc1Sc1nc(CN2CCOCC2)nc2scc(-c3ccccc3)c12` gave HCMV NEC inh -14, Sa growth 42C 127 and Sa growth 42C second temp 80.
Screening CC(C)NC(=O)c1ccccc1-c1ccccc1C(=O)NC(C)C returned HCMV NEC inh -6, Sa growth 42C 114, GIV-Gai inh 105 and Sa growth 42C second temp 78.
Screening Cc1ccc(CCNC(=O)CCc2cn(Cc3ccccc3C)c3ccccc23)cc1 returned Sa growth 42C 149, GIV-Gai inh 106 and Sa growth 42C second temp 113.
Screening COc1ccc(C2C(C(=O)Nc3nc4ccccc4s3)=C(C)NC3=C2C(=O)CC(C)(C)C3)c(OC)c1 (stereo unspecified) returned HCMV NEC inh -21 and GIV-Gai inh 101.
For COc1ccc(C2CC(C(F)(F)F)n3nc(C(=O)N4CCN(C(=O)c5ccccc5)CC4)c(Cl)c3N2)cc1OC (stereo unspecified) the results were HCMV NEC inh -8 and GIV-Gai inh 89.
For CN(C)c1ccc(/C=C/C=c2\sc3nc4ccccc4n3c2=O)cc1 the results were HCMV NEC inh -8, Sa growth 42C 124, GIV-Gai inh 238 and Sa growth 42C second temp 80.
Cn1cc(C(=O)N2CCCC2)c2[nH]c(=O)n(-c3ccccc3)c(=O)c21 was read as HCMV NEC inh -25 and GIV-Gai inh 101.
COc1ccc(C(=O)Nc2nnc(SCc3cc(=O)n4cccc(C)c4n3)s2)cc1 was read as Sa growth 42C 90, GIV-Gai inh 101 and Sa growth 42C second temp 86.
Cc1cc(-c2ccc(S(=O)(=O)NCCc3ccccc3)cc2)on1 was read as HCMV NEC inh -13, Sa growth 42C 93, GIV-Gai inh 98 and Sa growth 42C second temp 93.
CC1CCCN(C(=O)COc2ccc(-c3nc4ccccc4s3)cc2)C1 (stereo unspecified) was read as HCMV NEC inh 0, Sa growth 42C 85 and Sa growth 42C second temp 88.
Screening N#C/C(C(=S)Nc1ccccc1)=C1/NN=C(N2CCOCC2)N1c1ccccc1 returned HCMV NEC inh -7, Sa growth 42C 107 and Sa growth 42C second temp 78.
For O=c1[nH]c2ccc(NS(=O)(=O)c3ccc(Br)cc3)cc2[nH]1 the results were Sa growth 42C 99, GIV-Gai inh 101 and Sa growth 42C second temp 86.
COc1ccc(S(=O)(=O)[C@H]2CS(=O)(=O)C[C@@H]2N2CCC3(CC2)OCCO3)cc1 was read as HCMV NEC inh -17 and GIV-Gai inh 97.
Screening CCN(CC)CCCN1C(=O)C2C3C=CC(C3)C2C1=O (stereo unspecified) returned HCMV NEC inh -16, Sa growth 42C 102, GIV-Gai inh 101 and Sa growth 42C second temp 92.
For COc1ccc(Nc2cc(C)c3cc(NC(=O)c4cc(OC)cc(OC)c4)ccc3n2)cc1 the results were Sa growth 42C 93, GIV-Gai inh 102 and Sa growth 42C second temp 79.
`CCOC(=O)c1c(C)oc2cc(Br)c(OCC(=O)c3ccc(OC)cc3)cc12` gave HCMV NEC inh 3 and GIV-Gai inh 105.
Screening CCCn1c(C)cc(/C=C(\C#N)C(=O)N(C)Cc2ccc(Cl)c(Cl)c2)c1C returned HCMV NEC inh -16, Sa growth 42C 103 and Sa growth 42C second temp 93.
c1ccc(-c2nc3ccccn3c2NC2CCCC2)nc1 was read as HCMV NEC inh -53, Sa growth 42C -0.1*, GIV-Gai inh 106 and Sa growth 42C second temp -0.4*.
Screening NC(=S)n1ncc(C(=O)O)c1NC(=O)c1ccccc1Cl returned HCMV NEC inh -9, Sa growth 42C 67 and Sa growth 42C second temp 96.
Screening CSc1nnc2c(n1)OC(c1ccc(C)o1)Nc1ccccc1-2 (stereo unspecified) returned HCMV NEC inh -9 and GIV-Gai inh 109.
`O=C(NCC(c1ccc[nH]1)C(F)(F)F)Nc1ccccc1` (stereo unspecified) gave HCMV NEC inh -47, Sa growth 42C 94, GIV-Gai inh 100 and Sa growth 42C second temp 82.
For Cn1cnnc1SCC(=O)c1ccccc1 the results were HCMV NEC inh -29, Sa growth 42C 89, GIV-Gai inh 99 and Sa growth 42C second temp 101.
`Cc1ccc(-c2cn3nc(C)sc3n2)cc1` gave HCMV NEC inh -16 and GIV-Gai inh 99.
`CCOc1ccc2c(c1)-c1c(ssc1=S)C(C)(C)N2C(=O)CSc1nc2ccccc2o1` gave HCMV NEC inh -6 and GIV-Gai inh 116.
Screening Cc1c(C(=O)NCc2ccccc2)oc2ccc(S(=O)(=O)N3CCC(C)CC3)cc12 returned HCMV NEC inh -3&-18, Sa growth 42C 100, GIV-Gai inh 107&103 and Sa growth 42C second temp 97.
For COC(=O)c1cnn(-c2c(Cl)cccc2Cl)c1C=C(C#N)C#N the results were HCMV NEC inh 4, Sa growth 42C 73, GIV-Gai inh 97 and Sa growth 42C second temp 56.
For CC(C(=O)NN)n1nnc(-c2cc(C(F)(F)F)cc(C(F)(F)F)c2)n1 (stereo unspecified) the results were HCMV NEC inh -26, Sa growth 42C 98, GIV-Gai inh 101 and Sa growth 42C second temp 83.
Screening Cc1ccc(Cn2cc(CCC(=O)NCc3ccc(OC(C)C)cc3)c3ccccc32)cc1 returned Sa growth 42C 118, GIV-Gai inh 106 and Sa growth 42C second temp 99.
`CCn1c(CNC(=O)CSc2nnc(C)n2-c2ccc(C)cc2)cc2ccccc21` gave HCMV NEC inh 6, Sa growth 42C 110, GIV-Gai inh 94 and Sa growth 42C second temp 94.
For CCN1C(=O)C(=Cc2cccn2-c2ccc(O)cc2)C(=O)N(CC)C1=S the results were Sa growth 42C 95, GIV-Gai inh 102 and Sa growth 42C second temp 75.
`COc1cc2c(=O)n(CCC(=O)NCC3CCCO3)c(=O)n(CC(=O)Nc3ccc(C)cc3C)c2cc1OC` (stereo unspecified) gave HCMV NEC inh -19, Sa growth 42C 96, GIV-Gai inh 102 and Sa growth 42C second temp 93.
Screening CSc1ccc(S(=O)(=O)NC2CC2)cc1 returned HCMV NEC inh 6, Sa growth 42C 102, GIV-Gai inh 102 and Sa growth 42C second temp 100.
For CCc1nc2sc3c(NCCO)ncnc3c2c2c1CCCC2 the results were HCMV NEC inh -12, Sa growth 42C 92, GIV-Gai inh 101 and Sa growth 42C second temp 87.
COc1ccc(OCC(O)Cn2c(NCc3ccco3)nc3c2c(=O)[nH]c(=O)n3C)cc1 (stereo unspecified) was read as HCMV NEC inh -12 and GIV-Gai inh 104.
Screening O=C(CSc1nnc(CNC(=O)c2cccc(F)c2)n1-c1ccccc1)Nc1ccccc1F returned HCMV NEC inh -15, Sa growth 42C 112, GIV-Gai inh 101 and Sa growth 42C second temp 89.
`Cc1ccc(C)c(SCC(=O)Nc2cc(C)nn2-c2ccc(F)cc2)c1` gave HCMV NEC inh -6, Sa growth 42C 95 and Sa growth 42C second temp 97.
`CCOc1ccc(-n2c(=O)c3c(C)c(C)sc3n(CC(=O)NCCc3ccccc3)c2=O)cc1` gave HCMV NEC inh -12, Sa growth 42C 102, GIV-Gai inh 98 and Sa growth 42C second temp 84.
`O=C(NC1CCCC1)C1c2ccccc2C(=O)N2CCc3ccccc3C12` (stereo unspecified) gave HCMV NEC inh -18, Sa growth 42C 105, GIV-Gai inh 102 and Sa growth 42C second temp 84.
O=S(=O)(Nc1cccc2nsnc12)c1cccs1 was read as HCMV NEC inh 6, Sa growth 42C 127, GIV-Gai inh 109 and Sa growth 42C second temp 97.
COc1ccc(C(=O)OCC(=O)Nc2sc3c(c2C#N)CCC3)cc1OC was read as HCMV NEC inh -6, Sa growth 42C 93 and Sa growth 42C second temp 91.

Bioassay records from PubChem BioAssay.
